Source: PubChem (several laboratories)
Vif TR-FRET: HIV-1 Vif–A3G interaction blockers – biochemical, TR-FRET, GST-Vif 1-94, biotin-A3G peptide, dose response retest, primary screen (AID 1117319). TR-FRET GST-Vif / biotin-A3G peptide binding; higher % means a stronger effect; test concentration not given here; strong numbers were not always called active. one-dose inhibition, %; IC50 in µM for titrated hits. 260,000 tested, 0.57% active;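 active = above the screen mean plus three standard deviations and confirmed in dose response; inconclusive = results disagree or hit not tested in dose response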;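 note: Vif residues 1-94 fused to GST binding biotinylated APOBEC3G peptide 110-148; 0% = full assay without inhibitor and 100% = GST in place of GST-Vif; retest series ran down from 100 µM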
HNF4A DNA FP: change in binding of human HNF4 alpha to DNA; HNF4a-FITC DNA binding, fluorescence polarization, 1 h; P41235; 360,000 tested, 0.3% active; AID 1224865; activity change, % at 10 µM; in the data active = activity change above about 30%, passing the limit was not always enough;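 note: controls were the assay level and a saturating level of protein; the project sought stronger binding though the title names inhibitors; some compounds called inactive have numbers as strong as hits; positive values seem to mean higher polarization but the record does not say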
Target sequence (P41235 whole entry, looked up): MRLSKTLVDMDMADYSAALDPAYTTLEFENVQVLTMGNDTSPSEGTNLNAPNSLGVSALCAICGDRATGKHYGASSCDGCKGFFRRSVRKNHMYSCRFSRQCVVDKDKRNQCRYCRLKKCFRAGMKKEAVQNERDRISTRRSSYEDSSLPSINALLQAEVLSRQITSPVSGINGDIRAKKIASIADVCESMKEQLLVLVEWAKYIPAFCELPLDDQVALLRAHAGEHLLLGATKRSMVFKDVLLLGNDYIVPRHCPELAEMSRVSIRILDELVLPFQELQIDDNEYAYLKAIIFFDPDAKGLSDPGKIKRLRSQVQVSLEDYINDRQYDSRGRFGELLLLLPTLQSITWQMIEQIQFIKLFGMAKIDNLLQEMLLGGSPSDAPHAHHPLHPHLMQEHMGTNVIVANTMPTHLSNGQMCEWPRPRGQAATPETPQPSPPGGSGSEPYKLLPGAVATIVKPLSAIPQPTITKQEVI
* hit, by the source's call; ? = inconclusive; & = joins results of further samples. Only part of the results is shown; count on the stated rates, not on these rows.

Under each structure – Vif TR-FRET, HNF4A DNA FP
- CCn1ncc(Cl)c1C(=O)NC(=S)Nc1c(C)cc(C)cc1[N+](=O)[O-]
 : 1%, 2.9
- Cc1ccccc1CS(=O)(=O)Cc1ccc(C(=O)N2CCOCC2)o1
 : 9%, 1.3
- C[C@]1(C(=O)NCCCNc2ncc(C(F)(F)F)cc2Cl)C=C[C@@H](Cc2ccccc2)N1C(=O)c1ccccc1
 : 0%, 3.7
- O=[N+]([O-])c1cc(/C=N/O)ccc1SCc1ccccc1Cl
 : 5%, -1.2
- CCCCCCCCCC(=O)N/N=C(\C)c1cccnc1
 : 1%, -3.4
- CC1=C(C(=O)Nc2ccccc2)C(c2ccc(C)o2)n2c(s/c(=C\c3ccco3)c2=O)=N1 (stereo unspecified)
 : 5.3µM*, 4.4
- C/C(=N\Nc1cccc(C(=O)O)c1)c1ccc2c(c1)Nc1ccccc1S2
 : 9%, -6.5
- CCn1c2ccccc2c2cc(/C=N/n3cnnc3)ccc21
 : -2%, 1.3
- Cc1oc(CC(C)C)cc1C(=O)Nc1cccc2ccccc12
 : -3%, 0.3
- CCn1c(=O)cc(N2CCCCC2)[nH]c1=O
 : -1%, 1.1
- O=C(Nc1c(Br)cc2c(c1Br)Cc1ccccc1-2)C(F)(F)F
 : -2%, -4.3
- O=C1C2C(C(=O)N1/N=C/c1ccc([N+](=O)[O-])o1)C1C=CC2C12CC2 (stereo unspecified)
 : 22%, -0.4
- COc1ccc(/C=N/n2c(N)nc(-c3ccccc3)c2-c2ccccc2)cc1
 : -5%, 1.5
- N#Cc1cc([N+](=O)[O-])ccc1Oc1cccc(/C=N/NC(=O)c2ccc(Cl)cc2)c1
 : 1%, -1.1
- Cn1c2nc(=O)n(-c3ccccc3)c(=O)c-2nc2c1CCCC2
 : 23%, -46
- O=c1/c(=C/c2ccccn2)sc2nc3ccccc3n12
 : 29%, -7.5
- COc1cc(/C=N/NC(=O)Nc2ccccc2)ccc1OCCOc1ccccc1C
 : 12%, 0.8
- COc1ccc(N(C(C)C(=O)N/N=C/c2ccc(OCC(C)C)cc2)S(C)(=O)=O)cc1 (stereo unspecified)
 : 3%, -0.3
- C[C@]12c3[nH]c4cc(-c5ccco5)ccc4c3CCN1C(=O)[C@@H](CC(=O)NCCCn1ccnc1)C[C@@H]2C(=O)N1CCOCC1
 : -5%, 3.6
- COc1cc(/C=N/n2c(-c3ccc4c(c3)NC(=O)CO4)csc2=Nc2cccc(C)c2)ccc1O
 : -5%, 5.1

2 entries from above, as labelled records:
compound: C[C@]1(C(=O)NCCCNc2ncc(C(F)(F)F)cc2Cl)C=C[C@@H](Cc2ccccc2)N1C(=O)c1ccccc1
- Vif TR-FRET: 0%
- HNF4A DNA FP: 3.7

compound: O=[N+]([O-])c1cc(/C=N/O)ccc1SCc1ccccc1Cl
- Vif TR-FRET: 5%
- HNF4A DNA FP: -1.2

Continuation:
Under each structure – Vif TR-FRET, HNF4A DNA FP
- Cc1ccc2nc(Nc3ccccc3)c(/C=N/O)c(=O)n2c1
 : 1%&0%, -0.8
- CC(/C=C/c1ccc2c(c1)OCO2)=N/NC(=O)COc1ccc(C)cc1
 : 12%, 1.8
- CCCCCC1CC1C(=O)N/N=C/c1ccc(N(C)C)cc1 (stereo unspecified)
 : -4%, -0.7
- CN1CCN(CCC(=O)N/N=C/c2cc([N+](=O)[O-])ccc2O)CC1
 : ?, 3.9
- O=C(CO)N/N=C/c1cccc(Cl)c1Cl
 : 19%, 0.3
- CCOc1ccc(-n2c(O)c(/C=N/NC(=O)C3COc4ccccc4O3)c3ccccc3c2=O)cc1 (stereo unspecified)
 : 30%, 5.5
- COc1ccc(/C=N/N2C(=O)c3ccccc3C2=O)cc1
 : -5%, -0.4
- COc1ccc(C/C(C)=N/NC(=O)c2cc(C)oc2C)cc1
 : 4%, -0.9
- CCOc1ccccc1-c1cc(C(=O)N/N=C/c2ccc3c(c2)OCO3)c2ccccc2n1
 : 7%, -1.0
- CC(=O)N(/N=C1\Sc2ccccc2C1=O)c1cccc(C)c1
 : 7%, 7.8
- O=C(Nc1ccccc1C(=O)N/N=C/c1ccc(F)cc1)c1ccccc1Br
 : 27%, 2.5
- Cc1ccc(CC2S/C(=N/c3ccccn3)NC2=O)cc1 (stereo unspecified)
 : -3%, 2.8
- CCN(CC)S(=O)(=O)c1cccc(-c2n[nH]c(=S)n2/N=C/c2ccc(OC)cc2)c1
 : -7%, 0.0
- CCn1c(C)c(/C=N/Nc2nc3ccccc3s2)c2ccccc21
 : 1%, 0.9
- O=S(=O)(/N=C(\c1ccccc1)N1CCOCC1)c1cccs1
 : -5%, -0.6
- CS(=O)(=O)N(CC(=O)N/N=C/c1cc([N+](=O)[O-])ccc1Cl)c1ccccc1
 : 19%, -0.7
- CC(=O)Nc1ccc(/C(C)=N/NC(=O)CN(c2ccccc2Br)S(C)(=O)=O)cc1
 : 0%, -2.8
- COc1cc(C(=O)N/N=C\c2ccccc2)c([N+](=O)[O-])c(OC)c1OC
 : 2%, 2.4
- CC1C=CC=CC=CC=CC=CC=CC=CC(OC2OC(C)C(O)C(N)C2O)CC2OC(O)(CC(O)CC(O)C(O)CCC(O)CC(O)CC(=O)OC(C)C(C)C1O)CC(O)C2C(=O)O (stereo unspecified)
 : 0.87µM*, -11
- NC(=O)c1ccccc1N/C=C/C(=O)c1ccc(F)cc1
 : 1%, 0.8

Part of the list above, as labelled records:
CCCCCC1CC1C(=O)N/N=C/c1ccc(N(C)C)cc1 (stereo unspecified)
- Vif TR-FRET = -4%
- HNF4A DNA FP = -0.7
CN1CCN(CCC(=O)N/N=C/c2cc([N+](=O)[O-])ccc2O)CC1
- Vif TR-FRET = ?
- HNF4A DNA FP = 3.9
O=C(CO)N/N=C/c1cccc(Cl)c1Cl
- Vif TR-FRET = 19%
- HNF4A DNA FP = 0.3
CCOc1ccc(-n2c(O)c(/C=N/NC(=O)C3COc4ccccc4O3)c3ccccc3c2=O)cc1 (stereo unspecified)
- Vif TR-FRET = 30%
- HNF4A DNA FP = 5.5

Next part
Under each structure – Vif TR-FRET, HNF4A DNA FP
- COc1ccc([C@@H]2C[C@@H](c3ccccc3)Oc3cc(OC)cc(OC)c32)cc1
 : -2%, -4.0
- COc1ccc(/C=N/Nc2nc(-c3cccc(S(=O)(=O)N4CCCC4)c3)cs2)cc1OC
 : 11%, -1.9
- CC(/C=N/N1CCN(c2ccc(C)cc2)CC1)=C\c1ccccc1
 : -4%, 3.1
- O=c1[nH]c(=O)n(C2OC(CO)C(O)C2O)cc1F (stereo unspecified)
 : -6%, -5.0
- C/C(CC(=O)NC1CCCC1)=N\NC(=O)Cc1cccs1
 : 2%, -3.1
- Cc1cc(C)n(/N=C\c2c(O)ccc3ccccc23)c(=O)c1C(N)=O
 : -2%, 0.6
- O=[N+]([O-])c1ccc(/C=N/Nc2nc(N3CCCCCC3)nc(N3CCCCCC3)n2)o1
 : 10%, 1.2
- O=C1OCCN1C(=O)[C@H]1[C@H](c2ccc(Cl)cc2)C(c2cccc(Cl)c2)=NN1c1ccccc1
 : 19%, -0.2
- COc1ccc(NC(=O)N(C)[C@H]2C[C@H]3c4[nH]c5ccc(-c6cccc(C)c6)cc5c4CCN3C[C@H]2[C@H](C)O)cc1
 : -5%, -0.7
- CCN(CC)c1ccc(/C=N/NC(=O)c2ccco2)cc1
 : 7%, 2.6
- C/C(=N\NC(=O)COc1ccc(C(C)(C)C)cc1)c1ccc(OC(F)F)cc1
 : -7%, 2.3
- Oc1ccccc1/C=N/n1c(-c2cccs2)n[nH]c1=S
 : 3%, -2.9
- C#CCOCCOCCOCCNc1nc(N2CCN(C(=O)C(Cc3cc4ccccc4[nH]3)n3cc(C(N)C(C)CC)nn3)CC2)nc(N2CCN(C(=O)C(Cc3cc4ccccc4[nH]3)n3cc(C(N)C(C)CC)nn3)CC2)n1 (stereo unspecified)
 : -16%, 0.7
- C=CCn1cnc2c(c1=O)c1nc3ccccc3nc1n2/N=C/c1cccc(OC)c1
 : 1%, -1.4
- O=C(Cn1cncn1)N/N=C/c1cccc2ccccc12
 : 3%, 1.9
- Cc1ccnc(NC(=S)NC(=O)c2ccco2)c1
 : -1%, -2.8
- CC1(C)N=C2C(=[N+]1[O-])CCC/C2=N\O
 : 10%, 2.4
- CCN(CC)c1ccc(C(=O)n2cnc3ccccc32)cc1
 : 22%, -1.4
- COc1cccc(/C=N/NC(=O)c2nc(-c3ccccc3)cc(-c3ccccc3)n2)c1O
 : 3%, -4.6
- N=c1c(C(=O)NCc2ccc(F)cc2)cc2c(=O)n3ccccc3nc2n1Cc1ccco1
 : 28%, 3.1

Later entries
SMILES,Vif TR-FRET,HNF4A DNA FP
CC(=NNC(=S)N1CCN(c2ccccn2)CC1)c1nccs1,-1%,-0.9
CC(C)CCCCCCCCCCCCC(=O)NCC(=O)NC1C(O)C(O)C(Nc2ncnc3nc[nH]c23)OC1C(O)CO (stereo unspecified),5%,4.6
O=[N+]([O-])c1ccc(/C=N/Nc2nc(-c3ccccc3)c3cc(Br)ccc3n2)o1,2%,4.3
C/C(CC1CC(C)(C)OC1=O)=N/Nc1nc(-c2ccccc2)cs1 (stereo unspecified),?,0.4
CCN1CCc2c(C#N)c(N3CCOCC3)nc(NCc3ccccc3)c2C1,14%,1.1
CC1=NOC(=O)/C1=C\c1ccc(-c2ccc(Cl)cc2Cl)o1,?,-0.2
CC1(C)Cc2c(cnn2-c2ccccc2)C(=O)/C1=N\NC(=O)c1ccccc1O,6%,2.1
O=C(Nc1ccc2c(c1)OCO2)c1sc2cc(Cl)ccc2c1Cl,6%,-1.1
Cc1ccc(O)c(C2=NNC(O)(C(F)(F)F)C2)c1 (stereo unspecified),4%,-0.4
COc1ccc(C(=O)O/N=C(\N)Cc2ccc(Cl)cc2)cc1OC,-1%,1.4
O=C(Nc1cc(Sc2ccccn2)cc([N+](=O)[O-])c1)c1ccc([N+](=O)[O-])cc1,-3%,2.4
COc1cccc(/C=N/NC(=O)C(=O)NCc2ccco2)c1OC,-12%,1.9
C/C(CC(=O)Nc1ccc2ccccc2c1)=N\NC(=O)c1cnccn1,-4%,-0.9
COc1ccccc1NS(=O)(=O)c1cc([N+](=O)[O-])ccc1N/N=C/c1c(C)[nH]c2ccccc12,?,57*
O=C1CC(c2ccco2)Cc2nc(Nc3nc(-c4ccccc4)c4ccccc4n3)ncc21 (stereo unspecified),-3%,-1.9
CN1CCc2c(sc(/N=C/c3cccs3)c2C(N)=O)C1,?,20
C/C(=N\O)C1(C)N(O)C(C)(C)C(c2ccc(Br)cc2)=[N+]1[O-] (stereo unspecified),-1%,-4.4
Cc1cc(C)nc(N/N=C/C=C/c2ccccc2)n1,8%,9.2
Cn1c(=O)n(C)c2cc(/C=N/NC(=O)c3cccc(Br)c3)ccc21,13%,3.4
O=C(C1CCN(S(=O)(=O)c2cccc3cccnc23)CC1)N1CCN(C2CCCCC2)CC1,14%,1.4
COc1ccccc1-c1cc(C(=O)N/N=C/c2cccs2)c2ccccc2n1,-3%,-0.3
Cc1ccc2occ(/C=N/O)c(=O)c2c1,0%,-5.6
Cc1ccc(S(=O)(=O)Oc2ccc(/C=N/NC(=O)c3nn(C)cc3Cl)cc2)cc1,-9%,0.9
Cn1c(NC(=O)/C=C/c2ccc(Cl)c(Cl)c2)cc(=O)n(C)c1=O,?,0.3
CCCCNC(=O)C(=O)N/N=C/c1cccc(Br)c1,4%,-3.7
CC[C@@H](NS(=O)(=O)c1ccc(C)cc1)C(=O)Oc1ccc2c3c(c(=O)oc2c1)CCC3,2%,3.3
C(=C\c1ccccc1)/C=N/Nc1nc2ccccc2s1,0%,-4.7
COc1cc2ccnc(C=O)c2cc1OC,4%,-2.2
O/N=C\c1cccn1-c1ccc(Br)cc1,5%,-1.2
CCOC(=O)c1c(/N=C/c2cccc(C)c2O)sc2c1CCN(C)C2,-3%,-1.0
CN(C[C@H](Cc1ccccc1)N(C[C@H](Cc1ccccc1)N(CCC(C)(C)C)N=O)N=O)N=O,9%,0.2
C(=N\n1cnnc1)/c1ccc(-c2ccccc2)cc1,0%,0.2
COc1ccc(/C=N/NC(=O)c2cc(-c3cccn3C)n[nH]2)cc1OC,-2%,1.1
Cc1cc(-c2n[nH]c(=S)n2/N=C/C(Br)=C/c2ccccc2)n[nH]1,-4%,-1.8
COc1ccc(OC)c(/C=N/NC(=O)CSc2nnc(C)n2-c2ccccc2)c1,4%,-0.3
CC[C@@H]1CC=C[C@H]2[C@H]1C(=O)N(Cc1ccccc1)[C@H]2c1ccoc1,?,10
CCOc1cc(/C=N\NC(=O)Cc2ccccc2)ccc1OCC(=O)Nc1ccc(C)c(C)c1,22%,-1.3
COc1cc(/C=N/NC(=O)c2ccc(COc3cc(C)ccc3C(C)C)cc2)cc(OC)c1O,-16%,-3.4
COC(=O)CSc1nnc(CNC(=O)c2cccs2)n1-c1cccc(C)c1,?,-2.2
O=C(N/N=C(\c1ccccc1)c1cccnc1)C(O)(c1ccccc1)c1ccccc1,9%,-3.5
N/C(=N\OC(=O)Cc1cccs1)c1ccc([N+](=O)[O-])cc1,0%,-3.2
C/C(CC(=O)NC(C)(C)C)=N\NC(=O)c1ccco1,8%,-0.2
C/C(CC(=O)Nc1ccccc1C)=N\NC(=O)Cc1csc(N)n1,-6%,0.7
COc1cccc(/C=N/NC(=O)c2[nH]nc3c2CCc2ccccc2-3)c1O,14%,49*
O=C(NNS(=O)(=O)c1ccc(F)cc1)c1ccc(S(=O)(=O)N2CCCCC2)cc1,31%,-2.6
Cc1ccc(S(=O)(=O)N2CCOCC2)cc1NC(=O)COC(=O)c1ccccc1OCc1c(C)noc1C,-1%,0.7
